ugtP null kill – growth inhibition of ugtP-null S. aureus, primary screen, RN4220 ugtP deletion, OD600. AID 1259309, 2017. 16 h; some inactives read as strong as hits. 330,000 compounds, 0.54% hits. growth inhibition, % (test concentration not listed);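 active = z-score under -3 and OD600 up to 0.15 on both plates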;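 also: plate controls were untreated wells for no effect and antibiotic for full effect; wells of about 80 µL received 100 nL stock; the first replicate is given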
Bead autofluor – counter-screen for toxin protease inhibitors: compound fluorescence; 360,000 compounds, 3.1% hits; compound autofluorescence counterscreen, microsphere flow cytometry; stronger effect = higher value; fluorescence intensity (test concentration not listed);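 active = at least 3 SD above the mean of all compounds, about 16000 in these data; inconclusive = too few beads counted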;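 also: 100 nL of 1 mM stock went into each well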
BJeLR lethal – MLPCN primary cell-based screen for lethality selective to Ras in HRASV12 cells; BJeLR (HRASV12) viability, CellTiter-Glo ATP luminescence, 48 h; reference of the scale not given here; inhibition, % (concentration not given with the values); 300,000 compounds, 0.17% hits; AID 1554, 2009;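 active = replicate mean above 50%; inconclusive = above 50% but judged a plate artefact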;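 also: 50 nL library stock added to about 25 µL; numbers are from one replicate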
Mtb hypoxia inh – PubChem AID 1159583; M. tuberculosis hypoxia-regulated fluorescent reporter, fluorescence; fluorescence inhibition, % (test concentration not listed); 300,000 compounds, 0.1% hits;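 active = 35 to 45% if threefold the growth effect, above 45% if 1.5-fold the growth effect; inactive = the rest, general growth blockers included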;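 also: wells of about 50 µL received 100 nL stock; 0% = vehicle wells and 100% = reference inhibitor wells; whole bacteria with a GFP reporter of the hypoxia response; strong numbers were not always called active; many hits fall short of the cut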
PrP UTR inh – inhibition of PrP 5' UTR reporter expression; cell-based PrP 5' UTR mRNA reporter, plate reader; inhibition, % (no concentration beside the values); 340,000 compounds, 0.35% hits;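 active = every replicate at 50% or more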;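 also: 0 = median of the neutral control wells; tested in H4 reporter cells; numbers are from one replicate; inactives centre near -14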
RN4220 kill – growth inhibition of S. aureus RN4220, primary screen, OD600; inhibition, % (no concentration beside the values); AID 1259311, 2017; 330,000 compounds, 0.33% hits; 16 h;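 active = z-score of -3 or lower and OD600 up to 0.18 on both plates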;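 also: plate controls were untreated cells for no effect and reference antibiotic for full effect; stock transfer was 100 nL into about 80 µL; one replicate is shown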
Mtb hypoxia inh growth – also measured in Mtb hypoxia inh; calls as there; growth inhibition, %; measured here: M. tuberculosis growth (absorbance);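 0% = vehicle and 100% = reference antibiotic; read after six days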
* marks the source's active call; other numbers are inactive results; ? = inconclusive; / = no result given.

SMILES	ugtP null kill	Bead autofluor	BJeLR lethal	Mtb hypoxia inh	Mtb hypoxia inh growth	PrP UTR inh	RN4220 kill
COc1ccc(C(=O)c2sc3nc(C)cc(-c4cccs4)c3c2N)cc1OC	-28	7178	-9	-5	1	-4	-0.7
CC(C)OCP(=O)(c1ccccc1)c1ccccc1	-6	5837	6	-7	-8	-3	-1.3
Cc1cc(C)c(NC(=O)CC(C)(C)C)c(Cl)c1	1	2191	-10	/	/	-15	2.0
CC(C)NC(=O)c1ccc(-n2c(=S)[nH]c3ccccc3c2=O)cc1	0	/	3	-2	8	/	2.9
Cc1ccc(S(=O)(=O)N2CCC(C(=O)NC3CCCC3)CC2)cc1Cl	0	3632	-8	-6	3	-26	-2.4
CC1CCCCC1NC(=O)CO/N=C/c1ccc(OC(F)F)cc1 (configuration not stated)	/	4429	3	/	/	-12	/
CCOC(=O)N1CCN(C(=O)c2cnn(-c3ccccc3)c2NC(=O)c2ccccc2F)CC1	0	8269	2	-5	6	6	2.4
COc1ccccc1C(=O)N/C(=C\c1cn(C)c2ccccc12)C(=O)NCCCn1ccnc1	5	5805	-19	-1	-3	-25	4.0
Cn1ccc(NS(=O)(=O)c2cc(Br)ccc2Br)n1	3	3426	/	21	40	-24	7.2
CCCCN1C(=O)C2C3C=CC(C2C1=O)C1C2C(=O)N(CCCC)C(=O)C2C31 (configuration not stated)	5	2418	5	3	-2	-12	1.9
COC(=O)CCCNC(=O)CC1C(=O)NCCN1Cc1ccoc1 (configuration not stated)	4	2514	-8	14	3	-21	0.2
Cc1ccccc1C(=O)NC(CC(C)C)C(=O)NN1C(=O)c2ccccc2C1=O (configuration not stated)	2	3446	2	2	10	5	2.1
Cc1ccc(/C=N/c2sc3c(c2C#N)CCC3)o1	/	2701	4	/	/	-14	/
O=C(c1ccc2nc(N3CCCCC3)sc2c1)N1CCN(c2ccccn2)CC1	5	5659	-2	0	9	-23	-0.5
CCc1ccc(NC(=O)N2CCCCCC2)cc1	1	?	7	-4	17	-72	1.5

Four entries out of the list, sorted by heavy-atom count, rising:
SMILES	ugtP null kill	Bead autofluor	BJeLR lethal	Mtb hypoxia inh	Mtb hypoxia inh growth	PrP UTR inh	RN4220 kill
Cc1cc(C)c(NC(=O)CC(C)(C)C)c(Cl)c1	1	2191	-10	/	/	-15	2.0
CC(C)OCP(=O)(c1ccccc1)c1ccccc1	-6	5837	6	-7	-8	-3	-1.3
O=C(c1ccc2nc(N3CCCCC3)sc2c1)N1CCN(c2ccccn2)CC1	5	5659	-2	0	9	-23	-0.5
COc1ccccc1C(=O)N/C(=C\c1cn(C)c2ccccc12)C(=O)NCCCn1ccnc1	5	5805	-19	-1	-3	-25	4.0

Additional structures:
SMILES	ugtP null kill	Bead autofluor	BJeLR lethal	Mtb hypoxia inh	Mtb hypoxia inh growth	PrP UTR inh	RN4220 kill
COc1ccc(C(C)=O)cc1CC(C(=O)c1ccccc1)N(C)C (configuration not stated)	4	2631	0	-2	-9	-28	1.6
CCN1CCN(CC(=O)n2c3c(c4ccccc42)CC(C)CC3)CC1 (configuration not stated)	13	5233	2	/	/	-13	-2.9
Cc1ccc(NC(=O)C2CC(=O)N(c3ccc4c(c3)OCCO4)C2)nc1 (configuration not stated)	5	?	6	-2	-5	-15	2.7
COc1ccc(CN2C(=O)c3ccccc3C2=O)cc1C(=O)N(C)CC(=O)Nc1c(C)cccc1C	3	3806	/	3	6	-12	3.2
CCCc1cc(=O)[nH]c2nnc(SCC(=O)Nc3cccc(NC(C)=O)c3)n12	12	?	-3	-3	-7	-8	6.7
COC(=O)C(NC(C)=O)(Nc1nc2ccc(S(C)(=O)=O)cc2s1)C(F)(F)F (configuration not stated)	-5	2168	1	/	/	-17	0.8
COc1cc(CC(=O)Nc2nccs2)cc(OC)c1OC	-6	22884*	-3	4	9	-17	0.9
CCOC(=O)c1c(C)[nH]c(C(=O)CSc2nccc(C)n2)c1C	1	2738	-1	-2	8	-70	0.1
Cc1ccccc1NC(=O)c1ccc(OCc2c(C)noc2C)cc1	3	3743	/	8	0	-32	6.9
CC(=O)c1ccc(S(=O)(=O)NC2CC(=O)N(c3ccc(C)cc3)C2)cc1 (configuration not stated)	3	/	0	2	-1	-7	3.3
CC(C)(C)c1ccc(OCCCCCCN2CCNCC2)cc1	32	6303	6	21	12	-5	-2.6
Cc1ccc(CNC(=O)C2CCC(=O)N(Cc3ccc(Cl)cc3)C2)cc1F (configuration not stated)	-3	5986	8	7	0	-10	-2.4
COC(=O)c1nnn(-c2cc(Cl)cc(Cl)c2)c1C(=O)OC	12	4487	-6	7	-5	-19	4.9
O=C(COC(=O)CN1C(=O)c2cccc([N+](=O)[O-])c2C1=O)NC1CCS(=O)(=O)C1 (configuration not stated)	-4	5118	-1	-1	3	-34	1.4
Cc1cccc(-n2ncc(C(=O)NC3CCCC3)c2C2CCN(C(=O)OC(C)(C)C)CC2)c1	0	4107	4	8	4	0	5.0
CC(C)NC(=O)C(=O)NN=Cc1ccco1	-2	/	/	-2	5	/	-5.1
CCOCCOC(=O)c1ccc(NC(=O)C2COc3ccccc3O2)cc1 (configuration not stated)	4	4348	-5	7	4	-17	0.4
Clc1ccc(OCCn2ccnc2)cc1Cl	0	4013	6	10	3	-6	5.8
Cc1nc(N)nc(-c2ccccc2O)n1	-3	2887	-1	4	2	-8	5.1
COP(=O)(OC)C1(Nc2ccc(C)cc2)CCCCC1	-8	2730	-8	5	0	-6	5.7
COc1ccc(C=NNc2nnc(C)n2N)cc1OC	4	/	/	0	12	/	5.1
CCN1C(=NCCOC)NC(c2cccc(C(F)(F)F)c2)C(C(=O)OC)=C1C (configuration not stated)	-21	/	/	0	6	/	-2.0
CCOc1ncccc1C(=O)NNC(=O)c1csc(N2CCOCC2)n1	-5	6505	0	-7	10	-8	0.6
COCc1ccccc1C1=CC(=O)CC(c2ccc(OC)cc2)C1 (configuration not stated)	2	/	/	16	2	/	9.6
CCOC(=O)C1=C(C)N(c2ccc(C)c(C)c2)C(=O)/C1=C\c1ccco1	13	9785	-9	10	14	/	-0.4
CC(CC(=O)Nc1ccc2c(c1)OCCO2)=NNC(=O)Cc1ccccc1	8	/	/	3	-6	/	3.7
COc1cccc2c1cc1c(=O)n(CC(=O)NCCCN3CCCCC3)nc(C)n12	5	5614	-15	0	6	-18	3.0
Cc1cc(/C=N/NC(N)=S)c(C)n1-c1cccc(Cl)c1	/	2463	-7	/	/	-14	/
O=C1c2cccc3c([N+](=O)[O-])ccc(c23)C(=O)N1CCc1ccccn1	19	/	26	-1	22	-7	6.4
CCCOc1ccc(C(=O)NCCO)cc1	12	2324	6	/	/	-10	5.2
COc1ccc(/C=N/NC(=O)Cc2csc(Nc3cccc(C(F)(F)F)c3)n2)c(OC)c1	/	3226	0	/	/	-6	/
COc1ccc(OCCCC(=O)Nc2ccc3c(c2)OCCO3)cc1	2	9949	0	5	12	-66	0.9
COc1ccccc1C(=O)OCc1ccc2sc(C)nc2c1	7	3170	4	6	-4	-26	7.3
CN(C)S(=O)(=O)c1ccc(N2CCCC2)c(C(=O)Nc2nc3ccccc3s2)c1	2	7466	7	0	2	-36	-1.8
COc1ccc(S(=O)(=O)N2CCCC2CNC(=O)C(=O)NCc2ccc3c(c2)OCO3)cc1 (configuration not stated)	9	6272	-2	3	-1	-16	2.3
CN1CCN(c2nc3ccccc3c(=O)n2-c2ccccc2)CC1	3	5793	5	3	11	-20	1.4
O=C(NCc1ccc(F)cc1)c1ccc2c(c1)S(=O)(=O)c1ccccc1C2=O	-3	3413	-6	11	10	-6	13
COc1ccc(C=NNc2nc(-c3cccc(S(=O)(=O)N4CCCC4)c3)cs2)c(OC)c1	-9	/	/	6	2	/	9.0
Cc1nc(-c2nnc(SCC(=O)Nc3cc(Cl)cc(Cl)c3)n2C)cs1	0	4422	-4	-6	6	-1	-0.3
COc1ccc(S(=O)(=O)NCCc2ccc(F)cc2)cc1	6	7125	-2	2	0	-25	-1.4
Clc1nc2sccn2c1C=Nn1cnc2ccccc21	4	/	/	6	7	/	3.3
CC1CC(C)CN(C(=O)C(C)N(C)CC(=O)Nc2ccc(F)cc2)C1 (configuration not stated)	-6	4288	/	-10	4	-17	-0.5
Cc1cc(C)c(O)c(C2(O)C(=O)c3ccccc3C2=O)c1	1	6172	6	9	1	-23	4.9
O=C(NCC(c1cccs1)N1CCOCC1)c1cc(S(=O)(=O)N2CCOCC2)c(Cl)cc1Cl (configuration not stated)	3	?	-3	9	11	-4	2.4
CCCN(Cc1ccccc1)C(=S)Nc1cccc(C(F)(F)F)c1	8	2631	10	3	-1	-15	-4.5
O=C(c1noc2c1CCCCC2)N1CCN(C(c2ccccc2)c2ccccc2)CC1	4	5114	/	12	3	-23	-3.5
COc1cc(/C=N/NC(=O)CNc2n[nH]c(=O)[nH]c2=O)ccc1O	/	2359	-8	/	/	-19	/
CC(=O)Nc1ccc(S(=O)(=O)N2CCN=C2C)cc1	12	3469	5	/	/	-14	2.8
COc1cccc(C(=O)CSc2nccn2C)c1	7	3353	1	3	10	-45	4.7
O=C(NCCc1ccccc1)C1CCN(c2ncccn2)CC1	3	4056	2	10	9	10	1.3
Cc1ccc(N(CC(=O)NCc2ccc(F)cc2)S(=O)(=O)c2cccs2)cc1	0	13268	-1	12	13	-14	-1.2
COc1ccccc1N1CCN(C(c2ccccc2)c2nnnn2CCc2ccccc2)CC1 (configuration not stated)	14	2494	4	/	/	-15	1.2
CCn1c(=O)c([N+](=O)[O-])c(N2CCN(Cc3ccc4c(c3)OCO4)CC2)c2ccccc21	0	3433	-3	8	-1	-5	4.7
CCOC(=O)C1CCN(CCC(=O)Nc2ccc(C)cc2)CC1	3	4489	14	-2	11	-6	12
COc1ccc(C)cc1S(=O)(=O)Nc1ccc2c(c1)OCO2	3	4451	3	2	3	-12	2.1
NC(=O)[C@@H]1CC2(CC(c3cccc(NC(=O)[C@@H]4CCC(=O)N4)c3)=NO2)CN1C(=O)Cc1ccc([N+](=O)[O-])cc1 (some centres not stated)	/	2834	0	/	/	-14	/
Cc1nc2cc(N=NC3=C(O)CCCC3=O)ccc2s1	-2	1992	3	2	-2	-23	2.8
CCc1nnc(SCC(=O)Nc2ccc(F)cc2)o1	2	5776	6	-2	-4	-22	-1.3
COc1ccc2cc(-c3[nH]ncc3CN3C[C@@H]4CCC[C@H]3C4)ccc2c1	3	5597	-4	12	4	16	3.6
CC(Sc1nc(NC(C)(C)C)nc(N(C)C)n1)C(=O)Nc1ccccc1 (configuration not stated)	2	4358	5	8	-3	-12	-13

Random excerpt: 4 compounds from above, in no set order.
SMILES	ugtP null kill	Bead autofluor	BJeLR lethal	Mtb hypoxia inh	Mtb hypoxia inh growth	PrP UTR inh	RN4220 kill
COc1cc(CC(=O)Nc2nccs2)cc(OC)c1OC	-6	22884*	-3	4	9	-17	0.9
COc1ccccc1C(=O)N/C(=C\c1cn(C)c2ccccc12)C(=O)NCCCn1ccnc1	5	5805	-19	-1	-3	-25	4.0
CCOC(=O)N1CCN(C(=O)c2cnn(-c3ccccc3)c2NC(=O)c2ccccc2F)CC1	0	8269	2	-5	6	6	2.4
COC(=O)C(NC(C)=O)(Nc1nc2ccc(S(C)(=O)=O)cc2s1)C(F)(F)F (configuration not stated)	-5	2168	1	/	/	-17	0.8

Other results follow.
SMILES	ugtP null kill	Bead autofluor	BJeLR lethal	Mtb hypoxia inh	Mtb hypoxia inh growth	PrP UTR inh	RN4220 kill
CCN(C(=O)COC(=O)CNC(=O)C1CCCCC1)c1ccccc1	0	/	/	/	/	-10	-1.4
C#CC(CC)(CC)NC(=O)c1ccc(Br)s1	6	3871	-2	7	-4	-9	-6.0
Cc1nc(CS(=O)(=O)c2ccccc2)cc(N2CCOCC2)n1	5	2328	5	/	/	-23	-3.3
COc1ccc(C=NNC(=O)C(C)n2cnc3ccccc3c2=O)cc1 (configuration not stated)	8	/	/	2	3	/	2.7
O=C(COC(=O)CCCOc1ccc(Cl)cc1Cl)Nc1cccc(Cl)c1	-5	2165	-3	0	-4	-55	-1.7
O=C(c1ccccc1)N1CCN(C2CC3CCC2C3)CC1 (configuration not stated)	1	4414	-1	21	7	-26	3.0
C/C(Nc1cccc(F)c1)=C(/C#N)C(N)=O	4	10241	-6	11	8	-6	2.2
CSc1ccc(S(=O)(=O)NC(C)c2ccccc2)cc1 (configuration not stated)	-4	4090	5	7	17	-6	6.1
Cc1ccc(C(=O)NCCCN2CCN(CCCNC(=O)c3ccc(C)cc3)CC2)cc1	7	6155	-3	-14	-4	-24	0.9
O=C(NCc1ccc2c(c1)OCO2)c1cc2c(s1)CS(=O)(=O)C2	-4	7855	6	-12	0	-18	-4.7
O=C(O)CCCNC(=O)Cc1ccccc1	0	4730	6	7	-5	3	3.1
